ClpP mod = qHTS Assay for Activators of ClpP | ATP-dependent Clp protease proteolytic subunit (Bacillus subtilis (strain 168)), P80244 | purified B. subtilis ClpP, FRET peptide cleavage, 20 min | Potency, µM (highest dose often 57.5 µM), without a hit: at the highest dose activity change, negative = active | 1.9% of 340,000 active | AID 651965, 2013; active = well fitted falling curve with a large enough effect; inconclusive = small, poorly fitted or top-dose-only effect; inactive = no such curve, though single readings can be large or run the other way; note: potency is the fitted concentration of half-maximal effect; the source files actives as falling curves though it sought activators and does not explain the sign; nearly all actives have a fitted effect of over 65% in size; many hits overshoot -100%
Target sequence (P80244 whole entry, looked up): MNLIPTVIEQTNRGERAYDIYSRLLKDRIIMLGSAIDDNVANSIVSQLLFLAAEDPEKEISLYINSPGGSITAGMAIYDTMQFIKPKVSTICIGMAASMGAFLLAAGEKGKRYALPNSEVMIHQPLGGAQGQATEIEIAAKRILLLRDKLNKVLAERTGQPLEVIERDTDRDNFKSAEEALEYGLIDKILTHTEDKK
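Buffer: 100 mM Tris/HCl pH8, 100 mM KCl, 0.05% low protease BSA, 2.5% glycerol, 0.01% Tween-20. ClpP 10 microg/mL final; 20 min RT; delta FRET normalized to ADEP and DMSO controls.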
TRPML1 inh = qHTS for Inhibitors of the Human Mucolipin Transient Receptor Potential 1 (TRPML1); 0.02% of 390,000 active; TRPML1-inducible cells, Ca2+ dye fluorescence, FDSS; active compounds read low; inhibition of EC80 agonist-evoked calcium signal; activity change, negative = inhibition, % (concentration not given with the values); Mucolipin-1 (Homo sapiens), Q9GZU1; AID 624415, 2012; in the data active means activity change below about -50%; inconclusive means about -30% to -50%; inactive means above about -30%;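 note: stimulus is agonist 54-4 at its EC80 concentration; % is set by controls: 0 for no effect and ±100 for the full control effect; the text of the record puts the active cut at -80%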
Target sequence (Q9GZU1 whole entry, looked up): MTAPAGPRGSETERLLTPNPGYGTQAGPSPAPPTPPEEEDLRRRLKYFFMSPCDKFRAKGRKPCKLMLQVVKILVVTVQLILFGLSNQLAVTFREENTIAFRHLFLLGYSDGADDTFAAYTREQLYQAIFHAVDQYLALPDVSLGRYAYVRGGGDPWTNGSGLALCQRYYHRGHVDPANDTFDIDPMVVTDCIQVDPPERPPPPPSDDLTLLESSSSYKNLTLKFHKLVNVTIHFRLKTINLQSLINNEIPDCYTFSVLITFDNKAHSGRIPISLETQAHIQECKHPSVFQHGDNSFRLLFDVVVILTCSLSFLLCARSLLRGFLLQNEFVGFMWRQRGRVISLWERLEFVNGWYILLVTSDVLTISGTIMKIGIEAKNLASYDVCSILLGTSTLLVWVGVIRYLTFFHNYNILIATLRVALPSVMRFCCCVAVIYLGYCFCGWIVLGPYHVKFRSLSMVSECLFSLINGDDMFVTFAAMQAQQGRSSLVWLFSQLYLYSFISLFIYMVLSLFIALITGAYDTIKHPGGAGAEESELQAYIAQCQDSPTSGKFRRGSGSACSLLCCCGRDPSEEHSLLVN
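TRPML1-DL cells, Tet-induced overnight (~16 h, 37 °C) at 1,500 cells/well, were loaded with Ca8 no-wash dye plus quencher for 45-90 min at room temperature. Compounds were pinned during FDSS kinetic reading; agonist 54-4 at EC80 (4 uM final) then added.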
Numbers without * were called inactive. These rows are one share of the data. The share of hits here may be higher or lower than overall.

What do the screens show for `Cc1cccc(N2CCN(C(=O)c3cnn(-c4cccc(Cl)c4C)c3C3CCNCC3)CC2)c1C`?
ClpP mod: 1.1%; TRPML1 inh: 7

Results for Cc1c2cnn(CC(=O)N3CCN(c4ccc(F)cc4)CC3)c(=O)c2c(C)n1Cc1ccccc1F ?
ClpP mod: -10%; TRPML1 inh: -4

Results for CCC(C)c1ccc(OCC(=O)Nc2cccc(-c3nc4ncccc4o3)c2)cc1 (stereo not drawn) ?
ClpP mod: inconclusive; TRPML1 inh: 3

How did O=C(Nc1ccc(F)cc1F)c1ccc2c(O)c(S(=O)(=O)c3ccc(Cl)cc3)c(=O)[nH]c2c1 do in these assays?
ClpP mod: -18%; TRPML1 inh: -3

What do the screens show for `CCC(=O)N1c2ccccc2CC1C(=O)NCCc1ccccc1` (stereo not drawn)?
ClpP mod: -0.3%; TRPML1 inh: 22

How did COc1ccc(-n2c(=O)c3c4c(sc3n(Cc3cc(=O)n5c(C)cccc5n3)c2=O)CCC4)c(OC)c1 do in these assays?
ClpP mod: -4.0%; TRPML1 inh: 14

Results for CCN1CCN(C(=O)c2cnn(-c3ccc(F)cc3F)c2C2CCN(C(=O)OC(C)(C)C)CC2)CC1 ?
ClpP mod: -1.3%; TRPML1 inh: -25

What do the screens show for `CC(C)CC(=O)Nc1ccc2nc(SCC(=O)N3CCOCC3)sc2c1`?
ClpP mod: -3.9%; TRPML1 inh: 18

What do the screens show for `CCCOc1cccc(NC(=O)c2c(-c3ccccc3Cl)noc2C)c1`?
ClpP mod: -2.4%; TRPML1 inh: -9

How did CCOC(=O)Cc1ccc(NC(=O)Nc2c[nH]c(=O)[nH]c2=O)cc1 do in these assays?
ClpP mod: -2.7%; TRPML1 inh: -18

What do the screens show for `CCOc1ccccc1C(=O)Nc1ccc(S(=O)(=O)N2CCCCC2c2cccnc2)cc1` (stereo not drawn)?
ClpP mod: 5.5%; TRPML1 inh: -10

Results for COc1ccc(-c2nc3nc(C)cc(Nc4ccc(C(C)=O)cc4)n3n2)cc1 ?
ClpP mod: -5.2%; TRPML1 inh: 25

Results for O=C(CSc1nc(-c2ccccc2)nc2c1CCCC2)c1ccc(Cl)cc1 ?
ClpP mod: 1.2%; TRPML1 inh: -7

How did Cc1ccccc1-c1noc(-c2cccnc2N2CCN(c3ccccc3)CC2)n1 do in these assays?
ClpP mod: -1.3%; TRPML1 inh: -16

Results for CCOc1ccc(OCC)c(NC(=O)c2cc(CN3CCOCC3)on2)c1 ?
ClpP mod: -0.1%; TRPML1 inh: -26

How did COc1cccc(CNC(=O)CSc2n[nH]c(-c3ccccc3Cl)n2)c1 do in these assays?
ClpP mod: -0.3%; TRPML1 inh: -2

Results for CCOC(=O)c1c(C)[nH]c(C)c1S(=O)(=O)N1CCCC(C(=O)Nc2cccc(C)n2)C1 (stereo not drawn) ?
ClpP mod: -1.3%; TRPML1 inh: -20

Results for CCOc1ccc(NC(=O)C2CCC(CNS(=O)(=O)c3ccc4c(c3)CCCC(=O)N4)CC2)cc1 (stereo not drawn) ?
ClpP mod: -0.3%; TRPML1 inh: 3

Results for Cc1ccc(N2CCN(S(=O)(=O)c3c(C)[nH]c(=O)[nH]c3=O)CC2C)cc1 (stereo not drawn) ?
ClpP mod: 1.4%; TRPML1 inh: -16

What do the screens show for `Cc1ccc(Cn2c(=O)n(CCCCC(=O)NCc3ccccc3Cl)c(=O)c3ccccc32)cc1`?
ClpP mod: -6.0%; TRPML1 inh: -11

Results for CCN1CCN(CCCNC(=O)c2cc3c(=O)n(CC)c4ccccc4c3s2)CC1 ?
ClpP mod: 3.5%; TRPML1 inh: -9

Results for CCc1ccc(CNC(=O)CN2C(=O)c3cccnc3Oc3ccc(Cl)cc32)cc1 ?
ClpP mod: -3.6%; TRPML1 inh: -13

How did CCOc1ccccc1NC(=O)c1c(NCc2ccc(C)o2)sc2c1CCC(C)C2 (stereo not drawn) do in these assays?
ClpP mod: -12%; TRPML1 inh: 6

What do the screens show for `COc1ccccc1NC(=O)N1CC(=O)Nc2sc3c(c2C1c1ccccc1)CCCC3` (stereo not drawn)?
ClpP mod: inconclusive; TRPML1 inh: 6

Results for CC(Sc1oc(-c2ccco2)nc1S(=O)(=O)c1ccc(Br)cc1)c1ccccc1 (stereo not drawn) ?
ClpP mod: -2.2%; TRPML1 inh: 7

Results for CCOc1ccc(NC(=O)Cn2cc(C(=O)c3ccc(CC)cc3)c(=O)c3cc4c(cc32)OCO4)cc1 ?
ClpP mod: -1.1%; TRPML1 inh: 6

Results for COc1cccc(-c2cc(C(=O)Nc3ccc(Br)c(C)c3)[nH]n2)c1 ?
ClpP mod: -1.7%; TRPML1 inh: 13

How did Cc1cccc(C(=O)Nc2ccc(N3CCN(c4ccc(F)cc4)CC3)c(C(=O)O)c2)c1 do in these assays?
ClpP mod: -2.9%; TRPML1 inh: 1

What do the screens show for `CCOC(=O)c1c(-c2ccccc2)csc1NC(=O)c1cc(=O)c2ccc(C)cc2o1`?
ClpP mod: -0.6%; TRPML1 inh: -6

What do the screens show for `CCN(CC)CCCNC(=O)Cn1c(-c2cccs2)cc2cc(Cl)ccc21`?
ClpP mod: 28µM*; TRPML1 inh: -6

Results for CCOC(=O)c1ccc(NC(=O)CCc2c(C)nc3c(c(C)nn3C)c2C)cc1 ?
ClpP mod: -11%; TRPML1 inh: 5

Results for O=c1oc2ccc3ccccc3c2cc1-c1nnc(Nc2ccc(F)cc2)s1 ?
ClpP mod: -7.7%; TRPML1 inh: -9

What do the screens show for `CCc1nc(Nc2ccc(F)c(Cl)c2)c2c3c(sc2n1)CCCC3`?
ClpP mod: inconclusive; TRPML1 inh: 28

Results for COc1cc(C(=O)Nc2sc3c(c2C#N)CCCC3)c(Br)c(OC)c1OC ?
ClpP mod: -6.3%; TRPML1 inh: -4

Results for CSc1ccc(CNC(=O)CCn2c(=O)c3cccn3c3ccc(F)cc32)cc1 ?
ClpP mod: inconclusive; TRPML1 inh: -5

How did Cc1ccc(CNC(=O)c2ccc(-n3c(C)cc4c3CCCC4)cc2)cc1 do in these assays?
ClpP mod: -14%; TRPML1 inh: -11

How did CCC(Sc1nc2n[nH]c(C)c2c(=N)n1-c1ccccc1Cl)C(=O)N(CC)CC (stereo not drawn) do in these assays?
ClpP mod: 0.2%; TRPML1 inh: 14

What do the screens show for `CC(=O)c1ccc(NC(=O)C2CCN(S(=O)(=O)c3ccc4[nH]c5c(c4c3)CCCCC5)CC2)cc1`?
ClpP mod: -1.6%; TRPML1 inh: 30

How did CCCOc1ccc(Nc2nc(SC)ncc2C(=O)OCC)cc1 do in these assays?
ClpP mod: -0.4%; TRPML1 inh: 2

What do the screens show for `COc1ccc(-c2cc(-c3ccccc3)nc(SCC(=O)CC(=O)OC(C)C)c2C#N)cc1`?
ClpP mod: -20%; TRPML1 inh: 3

What do the screens show for `COc1ccc(N2CC(NC(=O)COc3cccc(C)c3)CC2=O)cc1OC` (stereo not drawn)?
ClpP mod: -9.4%; TRPML1 inh: -10

What do the screens show for `COc1ccc(-c2nc3c4ccccc4n(CC(=O)Nc4ccc(C(C)=O)cc4)c(=O)n3n2)cc1`?
ClpP mod: 2.2%; TRPML1 inh: 5

How did CCCn1ccc2c(OCC(=O)Nc3ccccc3C(=O)OCC)cccc2c1=O do in these assays?
ClpP mod: 0.1%; TRPML1 inh: -10

What do the screens show for `CCCCOC(=O)c1cccc(NC(=O)/C=C/c2ccccc2Cl)c1`?
ClpP mod: -8.7%; TRPML1 inh: -4

What do the screens show for `Cc1ccc(C)c(N2CCN(C(=O)CN3CCSc4ccccc43)CC2)c1`?
ClpP mod: -4.2%; TRPML1 inh: 38

What do the screens show for `Cc1ccc(C(=O)Nc2ccc(Br)cc2)cc1S(=O)(=O)N1CCOCC1`?
ClpP mod: 21%; TRPML1 inh: 40

What do the screens show for `O=C(CC[C@H]1O[C@@H](n2cnc3c(NC(=O)c4ccccc4)ncnc32)[C@H](O)[C@@H]1O)NCCc1cc2ccccc2[nH]1`?
ClpP mod: -4.5%; TRPML1 inh: -14

What do the screens show for `CC(NC(=O)c1sc2ncccc2c1-n1cccc1)c1ccccc1` (stereo not drawn)?
ClpP mod: -1.7%; TRPML1 inh: 68

What do the screens show for `COC(=O)c1ccccc1NC(=O)c1oc2ccc3c(c2c1C)C(=O)CC(C)(C)O3`?
ClpP mod: -18%; TRPML1 inh: 0

What do the screens show for `Cn1ccc2c(-c3ccc(C(N)=O)cc3)cc3c(c21)C1CCC3C1` (stereo not drawn)?
ClpP mod: 4.7%; TRPML1 inh: 6

Results for CCn1c(=O)n(-c2ccc(F)cc2)c(=O)c2sc3ccccc3c21 ?
ClpP mod: 3.2%; TRPML1 inh: 9

How did O=C(O)COc1ccccc1C1Nc2ccccc2-c2nnc(SCc3ccc(Cl)cc3)nc2O1 (stereo not drawn) do in these assays?
ClpP mod: -18%; TRPML1 inh: -11

What do the screens show for `CC(=O)N1CCC(N(Cc2ccco2)C(=O)Nc2ccc(C)c(Cl)c2)CC1`?
ClpP mod: -2.9%; TRPML1 inh: -15

What do the screens show for `CCc1nn2c(=O)cc(COC(=O)COc3ccc(OC)cc3)nc2s1`?
ClpP mod: -3.8%; TRPML1 inh: -1

How did COc1ccccc1NC(=O)CSc1nc(O)c(C/C=C/c2ccccc2)c(=O)[nH]1 do in these assays?
ClpP mod: 0.2%; TRPML1 inh: -9

Results for COc1ccc2c(c1)c(CC(=O)Nc1cccc(F)c1C)c(C)n2C(=O)c1ccc(Cl)cc1 ?
ClpP mod: 0.2%; TRPML1 inh: 18

Results for CCc1ccc(C(=O)c2cn(CC(=O)Nc3cccc(OC)c3)c3cc4c(cc3c2=O)OCO4)cc1 ?
ClpP mod: -4.7%; TRPML1 inh: -9

Results for COc1cc(Cl)c(NC(=O)c2cc(S(=O)(=O)N3CCCCC3)c[nH]2)c(OC)c1 ?
ClpP mod: 53%; TRPML1 inh: -21

Results for COc1cccc(NC(=O)Cn2c(=O)n(Cc3ccc(C(=O)NCc4ccc5c(c4)OCO5)cc3)c(=O)c3ccccc32)c1 ?
ClpP mod: 3.8%; TRPML1 inh: 14

How did Cc1cccc(CNC(=O)Cc2ccc(NC(=O)N3CCCCc4ccccc43)cc2)c1 do in these assays?
ClpP mod: -1.3%; TRPML1 inh: 37

Results for COc1ccc(S(=O)(=O)c2cc3cc(C(C)(C)C)cc(O)c3oc2=O)cc1 ?
ClpP mod: -1.5%; TRPML1 inh: 0

Results for CCc1ccc(-c2nn(CC(=O)NC3CCCCC3)c3c2cnc2ccc(F)cc23)cc1 ?
ClpP mod: -4.9%; TRPML1 inh: -2

How did Cc1ccc(-c2nc3ccc(Cl)cn3c2Nc2ccccc2C)s1 do in these assays?
ClpP mod: 12%; TRPML1 inh: -12

How did Cc1cccc(N2CCN(Cc3nnc(-c4ccc5c(c4)OCO5)o3)CC2)c1C do in these assays?
ClpP mod: -1.2%; TRPML1 inh: -2

How did CSc1cccc(N2C(=O)N(CC(=O)NCc3ccccc3Cl)c3ccccc3S2(=O)=O)c1 do in these assays?
ClpP mod: -2.5%; TRPML1 inh: 5

What do the screens show for `CCOC1=C2[C@H]([C@H]3C(=O)N(c4ccccc4)C(=O)[C@H]3C1)[C@@H](c1ccccc1)N(S(=O)(=O)c1ccc(C)cc1)[C@H]2c1ccccc1`?
ClpP mod: -0.7%; TRPML1 inh: -9

What do the screens show for `Cc1ccc(CNC(=O)CCc2c(C)nc3c(-c4ccc(F)cc4)c(C)nn3c2C)cc1`?
ClpP mod: 1.7%; TRPML1 inh: -23

How did CC1=C(C(=O)Nc2ccc(C)cc2C)C(c2ccccc2[N+](=O)[O-])n2ncc(C(=O)Nc3ccccc3)c2N1 (stereo not drawn) do in these assays?
ClpP mod: inconclusive; TRPML1 inh: 76

Results for CCN1CCC(N(Cc2ccc3c(c2)OCO3)C(=O)Nc2cc(Cl)ccc2C(=O)OC)CC1 ?
ClpP mod: -1.0%; TRPML1 inh: -9

Results for CC(C)(C)C(=O)Nc1ccc2nc(SCC(=O)N3CCCC3)sc2c1 ?
ClpP mod: -4.5%; TRPML1 inh: -7

How did CCCNC(=O)Cn1nc(-c2ccc(C)c(C)c2)c2cnc3ccc(F)cc3c21 do in these assays?
ClpP mod: -7.3%; TRPML1 inh: 8

Results for CCOC(=O)c1cc(S(=O)(=O)Nc2cc(C)c(Cl)cc2OC)[nH]n1 ?
ClpP mod: 2.3%; TRPML1 inh: -9

Gathered by group: the compounds so far with two or more sulfur atoms.
What do the screens show for `CC(C)CC(=O)Nc1ccc2nc(SCC(=O)N3CCOCC3)sc2c1`?
ClpP mod: -3.9%; TRPML1 inh: 18

Results for CC(Sc1oc(-c2ccco2)nc1S(=O)(=O)c1ccc(Br)cc1)c1ccccc1 (stereo not drawn) ?
ClpP mod: -2.2%; TRPML1 inh: 7

How did CSc1cccc(N2C(=O)N(CC(=O)NCc3ccccc3Cl)c3ccccc3S2(=O)=O)c1 do in these assays?
ClpP mod: -2.5%; TRPML1 inh: 5

Results for CC(C)(C)C(=O)Nc1ccc2nc(SCC(=O)N3CCCC3)sc2c1 ?
ClpP mod: -4.5%; TRPML1 inh: -7

Screening results as filed in PubChem.
